NPR1 antag: human Npr1 receptor antagonism; HEK293 hNpr1 GloSensor cGMP, ANP-stimulated luminescence; P16066; Potency, µM (titrated, usually from 46.3 µM), for the others: at the highest dose activity change, negative = inhibition, hits mostly inhibitors; actives 1.6% (n = 76,000); AID 1347048; active = well fitted inhibition curve with a large enough effect; inconclusive = small, poorly fitted or top-dose-only effect; inactive = no such curve, though single readings can be large or run the other way;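 also: nearly all actives have a fitted effect of over 60% in size; nearly all hits also lower the signal before the agonist is added; a reference antagonist and vehicle were the controls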
Target sequence (P16066 whole entry, looked up): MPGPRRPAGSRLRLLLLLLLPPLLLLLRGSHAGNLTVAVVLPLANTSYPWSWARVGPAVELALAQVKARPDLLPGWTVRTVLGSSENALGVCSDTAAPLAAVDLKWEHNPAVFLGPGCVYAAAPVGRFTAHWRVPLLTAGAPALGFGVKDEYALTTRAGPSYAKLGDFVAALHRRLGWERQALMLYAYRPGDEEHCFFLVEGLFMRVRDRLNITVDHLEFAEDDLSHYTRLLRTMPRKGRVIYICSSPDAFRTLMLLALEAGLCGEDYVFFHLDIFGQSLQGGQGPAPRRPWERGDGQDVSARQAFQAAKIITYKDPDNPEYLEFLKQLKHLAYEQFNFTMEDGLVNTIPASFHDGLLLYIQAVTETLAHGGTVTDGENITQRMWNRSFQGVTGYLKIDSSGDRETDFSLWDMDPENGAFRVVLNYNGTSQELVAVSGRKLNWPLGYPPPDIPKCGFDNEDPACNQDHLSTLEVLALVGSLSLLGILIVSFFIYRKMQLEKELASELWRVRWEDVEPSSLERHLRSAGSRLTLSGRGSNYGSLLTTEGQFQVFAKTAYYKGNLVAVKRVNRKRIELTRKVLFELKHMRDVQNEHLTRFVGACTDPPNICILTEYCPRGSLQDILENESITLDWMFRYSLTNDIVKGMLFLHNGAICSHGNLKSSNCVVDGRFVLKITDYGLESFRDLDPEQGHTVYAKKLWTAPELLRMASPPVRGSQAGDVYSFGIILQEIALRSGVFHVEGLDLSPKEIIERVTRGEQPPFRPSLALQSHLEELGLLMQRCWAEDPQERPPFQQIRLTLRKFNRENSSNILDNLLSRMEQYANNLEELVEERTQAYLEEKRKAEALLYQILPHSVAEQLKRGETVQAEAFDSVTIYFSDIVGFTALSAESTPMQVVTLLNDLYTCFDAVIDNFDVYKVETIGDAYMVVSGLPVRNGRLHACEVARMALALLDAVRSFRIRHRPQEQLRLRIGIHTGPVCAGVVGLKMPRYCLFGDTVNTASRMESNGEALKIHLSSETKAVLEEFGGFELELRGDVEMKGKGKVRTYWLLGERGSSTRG
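Compound pre-incubated 30 min at room temperature on GloSensor-loaded HEK293 cells stably carrying hNpr1 and the pGS-40F cGMP biosensor. Stimulation uses hNppA at 0.1 nM final; luminescence is taken at baseline and 20 min post-agonist.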
* hit, by the source's call; ? = inconclusive; [ ] = remark or other dose. % is scaled to controls: 0 for no effect and ±100 for the full control effect; potency is read from the fitted curve at half-maximal effect. The list is partial; rates above refer to the full screens.

mol	NPR1 antag
Cc1cnc(C2CC2)n1C1CCN(S(C)(=O)=O)CC1	-5%
COc1cc(=O)n2c(c1C(=O)Nc1ccc(C)c(Cl)c1)CCCC2	2%
COc1cccc(C(=O)N2CCC(C(NC(=O)CC(C)C)C(=O)NCC(C)C)CC2)c1 (centres undefined)	-8%
C=CCN(Cc1ccccc1OCC)C(=O)c1ccc(N(C)S(C)(=O)=O)cc1	3%
CCCn1cc(CN2CCC(CO)(Cc3ccccc3Cl)CC2)c(C)n1	-9%
O=C1Nc2ccccc2CC12CCN(Cc1cccc3ccccc13)CC2	13%
Cc1ccc(F)cc1S(=O)(=O)N(C)CC1CCOCC1	-2%
O=C(CC1CCCCN(Cc2ccccc2)C1=O)NC1CC1 (centres undefined)	-3%
Cc1cnc2c(Cl)c(C(=O)N[C@@H]3COCC[C@@H]3OCC3CC3)nn2c1	6%
c1ccc(CCc2nc3nccc(-c4cccnc4)n3n2)cc1	-2%
CSc1cccc(NC(=O)N2C[C@H](c3nc(-c4ccccc4)no3)[C@@H](C)C2)c1	0%
Cc1ccc2c(C)c(C(=O)N3CC(OCc4ccccc4F)C3)oc2c1	1%
CN(C)C[C@@H]1CN(C)C[C@H]1NC(=O)Cc1cccc(F)c1	1%
CCc1ccccc1S(=O)(=O)N1CCC(n2cnnc2C2CC2)CC1	1%
O=C(NCc1ccccc1)c1ccccc1OC1CN(Cc2ccncc2)C1	-6%
O=C(O)COc1ccc(-c2nccc3c2C(=O)N(Cc2c[nH]c4ccccc24)CC(COc2ccccc2)O3)cc1 (centres undefined)	7%
Fc1ccc(NC(=S)N[C@H]2CO[C@H]3[C@@H]2OC[C@@H]3n2nnnc2Oc2ccc(-n3cncn3)cc2)cc1	?
N#Cc1ccc(N2C[C@@H]3OCC(=O)N(Cc4ccccn4)[C@@H]3C2)nc1	0%[70.6 µM]
CCCc1noc(-c2ccn3c(CNC(=O)c4ccccc4F)nnc3c2)n1	-8%
O=C(c1cccnc1)N1CCCC(c2noc(COc3ccccc3F)n2)C1 (centres undefined)	5%
O=C(Nc1ccccc1)Nc1ccc([C@H]2OCC(=O)N(Cc3ccncc3)[C@@H]2CO)cc1	3%[70.6 µM]
Cc1ccc(C(=O)NCc2nnc3ccc(-c4ccc(C)c(C)c4)nn23)s1	-4%
Cc1oc2ccn(Cc3ccc(F)cc3)c(=O)c2c1C(=O)O	2%
CCn1ccc(C(=O)N2CCCC(c3noc(COc4ccccc4F)n3)C2)n1 (centres undefined)	-4%
Cc1ccc(C2(C(=O)N3CCCC4(CC3)CN(C)C(=O)O4)CC2)cc1 (centres undefined)	6%
COCC(=O)NCCC1CCN(C(=O)Nc2ccc(C)cc2)CC1	-1%
COc1ccccc1CN1CC[C@@](C)(O)[C@H](N2CCCC2)C1	0%
CCOC(=O)C1(Cc2ccccc2)CCCN(C(=O)C#Cc2ccccc2)C1 (centres undefined)	?
c1cc(-c2nnc([C@H]3CCN(CC4CCCCC4)C3)o2)ccn1	-5%[70.6 µM]
Cc1nc2scc(CC(=O)NC3CC3)n2c(=O)c1-c1cc(C)n(-c2ccccc2F)n1	2%
COc1cc(CNC(=O)c2ccc3c(c2)NC(C)(CNc2ccccc2)CO3)cc(OC)c1 (centres undefined)	1%
Cc1nnc([C@@H]2CC(F)(F)CN2C(=O)Cc2c[nH]c3ccccc23)o1	0%
COc1cc(NC(=O)COc2ccc(-c3nnc4n3CCCC4)cc2)cc(OC)c1OC	4%
O=C(C1CCCN(C2CCN(c3nnnn3-c3ccccc3)CC2)C1)N1CCCC1 (centres undefined)	7%
CN(Cc1cccc2cnccc12)C(=O)C(c1ccccc1F)N(C)C (centres undefined)	2%
Oc1cc(-c2csc3ccccc23)cc2c1OCCNC2	-16%
CS(=O)(=O)c1ccc(CN2C[C@@H]3OCC(=O)N(CC(N)=O)[C@@H]3C2)cc1	3%[70.6 µM]
C=CCNC(=O)CCc1c(C)nn(-c2ccccc2)c1Oc1ccccc1F	-9%
COCCOc1ccc2c(n1)CCN(C(=O)NCCC(C)C)C2	4%
O=C1CCN(C(=O)c2nccc3ccccc23)CCOCCN1	-3%
O=C(c1ccco1)N1CCC2(CC1)CC(OCC1CC1)CCO2 (centres undefined)	0%
CC(=O)c1cc(C(=O)N2CCc3c(nc[nH]c3=O)C2)c(=O)[nH]c1C	0%
COCC(=O)NC1CCC12CCN(C(=O)c1ccoc1)CC2 (centres undefined)	2%
CN(C)c1ccc(C(=O)N2CCC3(CC2)NC(=O)N(c2ccc(F)cc2)N3)cc1	2%
O=C(Cc1cccnc1)N1C[C@@H](COCC2CC2)[C@H](c2ccccn2)C1	2%
CNC(=O)N1CCC(C2CCN(C(=O)CCc3cccc(OC)c3)C2)CC1 (centres undefined)	0%
CCCOCCNC(=O)c1c(C)noc1-c1ccc(OC(F)(F)F)cc1	-10%
Cc1ccc(C)c(OCC(=O)c2ccc3c(c2)N(C(C)C(=O)N2CCCC2)C(=O)CO3)c1 (centres undefined)	3%
O=[S+]([O-])(c1cccc(C(F)(F)F)c1)N1CCn2c(nnc2C2CCCNC2)C1 (centres undefined)	-10%
CCN(Cc1cnn(CC)c1)C(=O)C1COc2ccccc2C1 (centres undefined)	1%
CCC(=O)N1CCC(Cc2nc(C3CCOCC3)no2)CC1	13%
CC(C)(CC(=O)O)CC(=O)N1CCN2C(=O)c3cc(-c4ccc(Cl)cc4)ccc3NC(=O)[C@@H]2C1	1%
O=C(CCc1ccnc(N2CCOCC2)c1)NCCN1CCc2ccccc2C1	-19%
CN(CC1CCOC1)C(=O)c1ccc(F)c(Cl)c1 (centres undefined)	7%
COc1ccccc1-c1noc(-c2nc(C)no2)n1	-4%
COCC1CN(C)CC12CCN(Cc1ccc(C)o1)CC2 (centres undefined)	2%
O=C(Cc1ccccc1)NC1CCCc2c1[nH]c1ccccc21 (centres undefined)	-1%
Cn1cnc(S(=O)(=O)N2CCCCC2c2nc(-c3cccnc3)n[nH]2)c1 (centres undefined)	-1%
COC[C@@H]1[C@H](NC(=O)c2cnc3c(c2)CCC3)[C@@H]2CCO[C@H]12	20%
Cc1ccc(C(=O)N2CCC3(CC2)N(C)C(=O)CS3(=O)=O)c(C)c1	-1%

The list goes on:
mol	NPR1 antag
Cc1cccc(CC(=O)N2CCC3(CC2)CC(N(C(=O)NC(C)C)C2CC2)CCO3)c1 (centres undefined)	-2%
COc1ccc(-c2nc3c([nH]2)CN(S(=O)(=O)N2CCCC2)CC3)cn1	4%
COc1cccc(C(C(=O)O)N2CCN(c3ccccn3)CC2)c1OC (centres undefined)	7%
CCc1noc(-c2cccn3c(CNC(=O)c4ccccc4F)nnc23)n1	-20%
Cc1nc2ncccn2c1C(=O)N[C@H]1CCOC[C@H]1C1CCOCC1	3%
O=C(NC1CC1)C1CC(=O)N(c2n[nH]c3cc(Br)ccc23)C1 (centres undefined)	7%
OC1(CN2CCCCC2)CCN(Cc2cccc(F)c2F)C1 (centres undefined)	4%
CNC(=O)c1cc[nH]c1C1CCCN(C(=O)NCCOC)C1 (centres undefined)	9%
O=C1NCCCCCCN(C(=O)c2cccs2)[C@H]2CCCC[C@@H]12	-1%
O=C(c1ccc(F)cc1)N1CCC(c2nn(-c3ccc(Cl)cc3)c(=O)[nH]2)CC1	-5%
O=C(c1cnc(N2CCOCC2)nc1)N1CCn2nc(C(O)C3CC3)cc2C1 (centres undefined)	4%
CN(C)C(=O)C1CN(C(=O)Nc2cccc(Br)c2)CC12CCOCC2 (centres undefined)	-13%
COCCOc1ccc(C(=O)N[C@@H]2CN(C(=O)NCc3ccccc3)CCC[C@H]2O)cc1	4%
Cc1n[nH]c(C)c1CCCNC(=O)C1CC2(CCNCC2)CN1 (centres undefined)	2%
O=C(c1ccccc1)N1CCNc2cnc(Nc3cccc(F)c3)nc2C1	13µM*

Among those listed so far, 9 have an aryl methoxy group:
mol	NPR1 antag
COc1cc(=O)n2c(c1C(=O)Nc1ccc(C)c(Cl)c1)CCCC2	2%
COc1cccc(C(=O)N2CCC(C(NC(=O)CC(C)C)C(=O)NCC(C)C)CC2)c1 (centres undefined)	-8%
COc1ccccc1CN1CC[C@@](C)(O)[C@H](N2CCCC2)C1	0%
COc1cc(CNC(=O)c2ccc3c(c2)NC(C)(CNc2ccccc2)CO3)cc(OC)c1 (centres undefined)	1%
COc1cc(NC(=O)COc2ccc(-c3nnc4n3CCCC4)cc2)cc(OC)c1OC	4%
CNC(=O)N1CCC(C2CCN(C(=O)CCc3cccc(OC)c3)C2)CC1 (centres undefined)	0%
COc1ccccc1-c1noc(-c2nc(C)no2)n1	-4%
COc1ccc(-c2nc3c([nH]2)CN(S(=O)(=O)N2CCCC2)CC3)cn1	4%
COc1cccc(C(C(=O)O)N2CCN(c3ccccn3)CC2)c1OC (centres undefined)	7%

Further results:
mol	NPR1 antag
CCS(=O)(=O)N1C[C@@H]2CN(c3nccc(NC)n3)C[C@]2(C(=O)O)C1	19%
O=c1cc(CNCc2nc(-c3ncccn3)no2)[nH]c2ccc(F)cc12	6%
O=C(NCc1ccco1)[C@@H]1Cc2nc[nH]c2CN1Cc1ccc(Cl)cc1	-11%[70.6 µM]
O=C(CC[C@H]1NC(=O)c2ccccc2NC1=O)NCCc1nnc2ccccn12	2%
Cc1cnc(C(=O)N2CCC(c3nc(C4CCOCC4)no3)CC2)cn1	6%
CC(=O)N1CCOc2ccc(S(=O)(=O)NCC3CNCCOC3)cc21 (centres undefined)	-1%
CNC(=O)NC[C@H]1CCN(Cc2ccc(OC)c(C)c2)C[C@H]1N(C)C	1%
Nc1nc2c(s1)C(c1ccc(F)cc1F)CC(=O)N2 (centres undefined)	-24%
CC(C)Oc1cccc(-c2n[nH]c3c2CC(=O)N(Cc2ccccc2)C3)c1	-12%[70.6 µM]
Cc1cnc2c(C(=O)NCc3cccnc3Oc3ccccc3)cnn2c1	1%
COC(=O)C1CCN([C@H]2[C@@H]3OC[C@@H](O3)[C@@H](NC(=O)Nc3cccc(OC)c3)[C@@H]2O)CC1	5%
CN1CC(=O)N(c2ccccc2)Cc2c1ncnc2N1CCCC1CO (centres undefined)	-3%
COc1ccc(F)cc1S(=O)(=O)N1CCn2c(nn(C)c2=O)C1	-1%
COCC1CN(C2CCC2)CC12CCN(C(=O)c1ccc(OC)cc1C)CC2 (centres undefined)	-21%
Cc1c(C(C)NC(=O)Cc2c[nH]c3ccccc23)cnn1-c1ccccn1 (centres undefined)	-4%
Cc1ccc(OCc2nc(C3CN(C(=O)c4cc(C)n(C)n4)C3)no2)cc1	-8%
O=C(N[C@H]1CCN2C(=O)c3cc(-c4ccc(Cl)cc4)ccc3NC(=O)[C@H]12)c1cnccn1	0%
CCN1C(=O)CCN(C(=O)c2cnn(C)c2)CC12CCOCC2	11%
COc1ccccc1C(=O)N1CCC2(CCCCO2)CC1	9%
O=C(CN1CCCC1=O)N1CCC(C2CCNC2)CC1 (centres undefined)	14%
OCCC1CN(Cc2cccn2-c2nccs2)CCN1Cc1ccc(F)c(F)c1 (centres undefined)	-6%
COCC(=O)Nc1ccc(Cl)c(NC(=O)NC(C)Cn2cncn2)c1 (centres undefined)	2%
COc1ccc2[nH]cc(CCNC(=O)CCC3CCN(C(=O)c4ccccc4)CC3)c2c1	-15%
CN1C(=O)c2cccn2CC1CNC(=O)c1cccs1 (centres undefined)	0%
O=C(CCC1CCN(S(=O)(=O)c2ccccc2)CC1)NC1CCS(=O)(=O)C1 (centres undefined)	5%
Cc1ccc(NC(=O)Nc2cccc(-c3ccc(N4CCOCC4)nn3)c2)cc1	?
CCCCNC(=O)c1cccc(CN2C(=O)CC(c3ccccc3C)C(C(=O)OCC)=C2C)c1 (centres undefined)	-3%
O=C(CC1CCS(=O)(=O)C1)N1CCCC(c2ccccc2)(c2ccccc2)C1 (centres undefined)	-2%
Cc1nn(-c2ccc(F)cc2)c(Oc2cccc(F)c2)c1CCC(=O)N(C)C(C)C	-17%
O=C(c1ccc(Cl)nc1)N1CCn2c(nn(-c3ccc([N+](=O)[O-])cc3)c2=O)C1	0%

Three compounds already listed, ordered by molar mass, rising:
mol	NPR1 antag
O=C(CC1CCS(=O)(=O)C1)N1CCCC(c2ccccc2)(c2ccccc2)C1 (centres undefined)	-2%
COc1ccc2[nH]cc(CCNC(=O)CCC3CCN(C(=O)c4ccccc4)CC3)c2c1	-15%
CCCCNC(=O)c1cccc(CN2C(=O)CC(c3ccccc3C)C(C(=O)OCC)=C2C)c1 (centres undefined)	-3%

Following part
mol	NPR1 antag
COCCN1C(=O)[C@H]2CN(Cc3ccccc3OC(F)(F)F)C[C@H]2C1=O	0%
COc1cccc(Nc2ncc3c(n2)C(C)(C(=O)N2CC[S+](=O)([O-])CC2)CC3)c1 (centres undefined)	3%[70.6 µM]
COCC1CN(C2CCC2)CC12CCN(C(=O)c1cccc(OC)c1)CC2 (centres undefined)	-4%
CCCCN1C(=O)CC[C@H]2CN(C(=O)CCn3cccc3)CC[C@H]21	1%
Cc1cc(C)cc(NC(=O)Cn2c(N3CCN(c4ccccc4)CC3)nc(C)cc2=O)c1	-1%
O=C1C[C@@H]2CCN(C(=O)c3ccccc3)C[C@@H]2CCN1CCN1CCNC1=O	-7%[70.6 µM]
CC(=O)c1c(C)nn(C(C)CC(=O)N2CCc3c(nc(N)[nH]c3=O)C2)c1C (centres undefined)	6%
Cc1cn2nnc(C(=O)NCCc3cccs3)c2c(=O)[nH]1	4%

Compound activity from PubChem BioAssay.
